Assay outcomes deposited in PubChem by Broad Institute.
Yeast UUG start: alters start codon recognition fidelity in yeast. S. cerevisiae UUG-firefly luciferase reporter, luminescence/redox ratio. activity score, % at 18.7 µM. 350,000 compounds, 0.13% hits. AID 602363;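 active = replicate mean at a twofold rise or more, about +100% in these data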;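 also: firefly luciferase made from a UUG start codon reports start codon fidelity; reporter light over untreated wells divided by growth signal over untreated wells; some hits fall short of that in this replicate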
* marks the source's active call; other numbers are inactive results. This is a subset; the hit share may differ from the screen's.

SMILES	Yeast UUG start
Cc1cccc(S(=O)(=O)N2C[C@@H](O)COC[C@@H]3O[C@H](CC(=O)NCc4ccc5c(c4)OCO5)CC[C@H]32)c1	8
O=C(Cc1ccccn1)N1CC[C@@H]2[C@H]1c1cc(-c3cccc(F)c3)ccc1N[C@@H]2CO	-15
Cc1ccc(S(=O)(=O)N2C[C@H](O)COC[C@@H]3O[C@@H](CC(=O)NCc4ccc(Cl)c(Cl)c4)CC[C@H]32)cc1	14
C[C@H](CO)N1C[C@H](C)[C@H](CN(C)C(=O)Nc2ccc(C(F)(F)F)cc2)Oc2ccc(NS(=O)(=O)c3cccs3)cc2C1=O	-9
CO[C@H]1CN(C)C(=O)c2cc(NC(=O)NC3CCCCC3)ccc2OC[C@@H](C)N(CC2CC2)C[C@@H]1C	-4
CCCNC(=O)Nc1ccc2c(c1)C(=O)N(C)C[C@H](OC)[C@@H](C)CN(C(=O)C1CC1)[C@@H](C)CO2	-11
CO[C@@H]1CN(C)C(=O)c2cc(NC(=O)c3cc(C)on3)ccc2OC[C@@H](C)N(C(=O)C2CCC2)C[C@H]1C	-1
C[C@@H]1CN([C@H](C)CO)C(=O)c2cc(NS(=O)(=O)c3ccc(F)cc3)ccc2O[C@H]1CN(C)Cc1ccc(-c2ccccc2)cc1	-9
O=C(C[C@H]1CC[C@H]2[C@@H](COC[C@H](O)CN2S(=O)(=O)c2ccc(Cl)cc2)O1)N[C@H]1CCN(Cc2ccccc2)C1	27
COc1cccc(-c2ccc3c(c2)[C@@H]2[C@@H](CCN2C(=O)C2CCOCC2)[C@@H](CO)N3)c1	-10
CN1C(=O)c2cc(NS(=O)(=O)c3ccc(Cl)cc3)ccc2OC[C@@H]2O[C@@H](CC(=O)O)CC[C@H]21	10
Cn1cnc(CCNC(=O)C[C@@H]2CC[C@H]3[C@@H](COC[C@@H](O)CN3C(=O)Nc3ccccc3)O2)c1	-3
Cc1cc(C(=O)Nc2cccc3c2O[C@H](CN(C)Cc2ccncc2)[C@H](C)CN([C@H](C)CO)C3=O)n(C)n1	-11
COCC(=O)Nc1ccc2c(c1)OC[C@@H](C)N(Cc1ccncc1)C[C@H](C)[C@H](OC)CN(C)C2=O	6
CO[C@H]1CN(C)C(=O)c2ccc(NS(=O)(=O)CC(F)(F)F)cc2OC[C@@H](C)N(CC2CCCCC2)C[C@H]1C	-4
CCC(=O)N1[C@H](CNC(=O)CN2CCOCC2)[C@H](c2ccccc2)[C@@H]1CO	-7
COCCNC(=O)C[C@@H]1CC[C@@H]2[C@H](COc3ccc(NC(=O)C4CCOCC4)cc3C(=O)N2C)O1	37
CNC[C@H]1Oc2ccc(NC(=O)NC(C)C)cc2CC(=O)N([C@@H](C)CO)C[C@H]1C	-16
COCC(=O)N1[C@@H](CO)[C@@H]2c3ccccc3N(C(=O)Nc3ccccc3Cl)C[C@@H]21	-12
CN1C(=O)c2cc(NC(=O)Nc3ccccc3F)ccc2OC[C@H]2O[C@H](CC(=O)NCc3ccc(-c4ccccc4)cc3)CC[C@H]21	-16
Cc1ccccc1-c1ccc([C@@H]2[C@@H](CO)N3CCCCN(S(=O)(=O)c4ccc(F)cc4)C[C@@H]23)cc1	-6
O=C(CC(F)(F)F)N1C[C@H]2[C@@H](c3ccccc31)[C@@H](CO)N2C(=O)CN1CCOCC1	1
COc1ccc(NC(=O)N2C[C@@H](O)COC[C@H]3O[C@@H](CC(=O)NCc4ccncn4)CC[C@@H]32)cc1	-9
COc1cccc(C(=O)Nc2ccc3c(c2)C(=O)N(C)C[C@@H](OC)[C@H](C)CN(C(=O)C2CCCCC2)[C@H](C)CO3)c1	6
O=C(C[C@@H]1C[C@H]2c3cc(NC(=O)CC4CC4)ccc3O[C@H]2[C@H](CO)O1)NCc1cccnc1	1
Other structures
SMILES	Yeast UUG start
CC(C)NC(=O)Nc1ccc2c(c1)C(=O)N([C@H](C)CO)C[C@H](C)[C@@H](CN(C)Cc1ccc(C(F)(F)F)cc1)O2	13
O=C(c1ccncc1)N1CCCCN2[C@H](CO)[C@H](c3ccc(-c4ccccc4)cc3)[C@@H]2C1	-14
CN(C)C(=O)c1ccc(-c2ccc([C@@H]3[C@@H](CO)N4CCCCN(Cc5cncnc5)C[C@@H]34)cc2)cc1	-4
CO[C@@H]1CN(C)C(=O)c2ccc(NC(=O)Nc3cc(F)ccc3F)cc2OC[C@H](C)N(C(=O)c2ccccn2)C[C@H]1C	-2
C[C@@H]1CN([C@H](C)CO)C(=O)c2cccc(NC(=O)c3ccncc3)c2O[C@@H]1CN(C)S(=O)(=O)c1cccs1	0
Cn1cnc(S(=O)(=O)N2CCCCN3[C@H](CO)[C@@H](c4ccc(-c5ccc(F)cc5)cc4)[C@H]3C2)c1	-9
CO[C@H]1CN(C)C(=O)c2cc(NC(C)=O)ccc2OC[C@H](C)N(C(=O)Cc2cccnc2)C[C@H]1C	-12
CCC(=O)Nc1ccc2c(c1)OC[C@H](C)N(C(=O)C1CCC1)C[C@H](C)[C@@H](OC)CN(C)C2=O	20
Cc1ccc(S(=O)(=O)Nc2ccc3c(c2)CC(=O)N([C@H](C)CO)C[C@H](C)[C@H](CN(C)CC2CCCCC2)O3)cc1	3
CCC(=O)N1C[C@H](C)[C@H](OC)CN(C)C(=O)c2cc(NC(=O)NC(C)C)ccc2OC[C@@H]1C	0
Cc1cccc(-c2ccc([C@H]3[C@H]4CN(S(=O)(=O)c5ccccc5C)CCCCN4[C@H]3CO)cc2)c1	19
CNC[C@H]1Oc2ccc(NC(=O)Nc3ccc(F)cc3)cc2C(=O)N([C@@H](C)CO)C[C@H]1C	4
CN1C(=O)c2cc(NC(=O)NCc3ccccc3)ccc2OC[C@H]2O[C@@H](CC(=O)NCC3CCCCC3)CC[C@@H]21	10
COc1ccccc1-c1ccc([C@H]2[C@@H](CO)N3CCCCN(C(=O)c4cccnc4)C[C@H]23)cc1	-1
O=C(C[C@H]1CC[C@@H]2[C@H](COC[C@@H](O)CN2Cc2nccs2)O1)NCc1ccccc1F	5
C[C@H]1CN([C@@H](C)CO)C(=O)c2cc(NC(=O)Nc3ccccc3)ccc2O[C@H]1CN(C)C(=O)NC1CCCCC1	-8
C[C@H](CO)N1C[C@H](C)[C@@H](CN(C)C(=O)Nc2ccc3c(c2)OCO3)Oc2c(NS(=O)(=O)c3cccs3)cccc2C1=O	11
COc1ccc(CN(C)C[C@@H]2Oc3ccc(NS(=O)(=O)c4cn(C)cn4)cc3C(=O)N([C@H](C)CO)C[C@@H]2C)cc1	-4
Cc1ccc(S(=O)(=O)N(C)C[C@H]2Oc3ccc(NC(=O)CCN4CCOCC4)cc3C(=O)N([C@H](C)CO)C[C@H]2C)cc1	2
OC[C@@H]1[C@@H](c2ccc(C#CC3(O)CCCC3)cc2)[C@H]2CN(Cc3cncnc3)CCCCN12	7
O=C(C[C@@H]1CC[C@H]2[C@@H](COC[C@H](O)CN2Cc2cccc(Cl)c2)O1)NCc1cccc(F)c1	1
Cc1ccc(S(=O)(=O)N(C)C[C@H]2Oc3ccc(NC(=O)Nc4ccc(F)cc4)cc3C(=O)N([C@H](C)CO)C[C@@H]2C)cc1	-5
OC[C@@H]1[C@H](c2ccc(-c3ccccc3)cc2)[C@H]2CN(Cc3cncnc3)CCCCN12	7
O=C(C[C@H]1CC[C@H]2[C@@H](COC[C@@H](O)CN2C(=O)Nc2ccc(Cl)c(Cl)c2)O1)NCc1ccccc1	4
C[C@H](CO)N1C[C@H](C)[C@H](CN(C)Cc2ccc(Cl)c(Cl)c2)Oc2ccc(NS(=O)(=O)c3ccccc3)cc2C1=O	2

2 records drawn at random from those above:
SMILES	Yeast UUG start
CO[C@@H]1CN(C)C(=O)c2ccc(NC(=O)Nc3cc(F)ccc3F)cc2OC[C@H](C)N(C(=O)c2ccccn2)C[C@H]1C	-2
Cc1ccc(S(=O)(=O)N(C)C[C@H]2Oc3ccc(NC(=O)CCN4CCOCC4)cc3C(=O)N([C@H](C)CO)C[C@H]2C)cc1	2

Seven compounds out of the list, ordered by molar mass, rising:
SMILES	Yeast UUG start
O=C(c1ccncc1)N1CCCCN2[C@H](CO)[C@H](c3ccc(-c4ccccc4)cc3)[C@@H]2C1	-14
O=C(C[C@H]1CC[C@@H]2[C@H](COC[C@@H](O)CN2Cc2nccs2)O1)NCc1ccccc1F	5
CO[C@@H]1CN(C)C(=O)c2cc(NC(=O)c3cc(C)on3)ccc2OC[C@@H](C)N(C(=O)C2CCC2)C[C@H]1C	-1
C[C@H]1CN([C@@H](C)CO)C(=O)c2cc(NC(=O)Nc3ccccc3)ccc2O[C@H]1CN(C)C(=O)NC1CCCCC1	-8
CO[C@H]1CN(C)C(=O)c2ccc(NS(=O)(=O)CC(F)(F)F)cc2OC[C@@H](C)N(CC2CCCCC2)C[C@H]1C	-4
CO[C@@H]1CN(C)C(=O)c2ccc(NC(=O)Nc3cc(F)ccc3F)cc2OC[C@H](C)N(C(=O)c2ccccn2)C[C@H]1C	-2
C[C@@H]1CN([C@H](C)CO)C(=O)c2cc(NS(=O)(=O)c3ccc(F)cc3)ccc2O[C@H]1CN(C)Cc1ccc(-c2ccccc2)cc1	-9

(further entries)
SMILES	Yeast UUG start
Cn1cnc(CCNC(=O)C[C@H]2CC[C@@H]3[C@H](COC[C@@H](O)CN3C(=O)Nc3ccc(F)cc3)O2)c1	-11
C[C@H](CO)N1C[C@H](C)[C@H](CN(C)S(=O)(=O)c2cccs2)Oc2c(NC(=O)Nc3cccc4ccccc34)cccc2C1=O	-14
COC(=O)[C@H]1[C@H](CO)[C@H]2Cn3c(cccc3=O)[C@H]2N1C(=O)C1CCC1	-14
C/C=C/c1ccc([C@@H]2[C@@H](CO)N(C(=O)Cc3cccnc3)[C@H]2CNC(C)=O)cc1	0
CN1c2ccc(Br)cc2[C@H]2[C@H](CCN2C(=O)Nc2ccccc2F)[C@H]1CO	12
C[C@@H]1CN([C@@H](C)CO)C(=O)c2cc(NS(=O)(=O)c3cn(C)cn3)ccc2O[C@@H]1CN(C)C	-5
CN1c2ccc(-c3ccc(F)cc3)cc2[C@H]2[C@H](CCN2S(=O)(=O)c2ccc(F)cc2)[C@H]1CO	-10
COc1cccc(C(=O)N2C[C@@H]3[C@H](c4ccccc42)[C@@H](CO)N3C(=O)c2ccccc2)c1	2
O=C(C[C@H]1CC[C@H]2[C@@H](COC[C@@H](O)CN2S(=O)(=O)c2ccc(Cl)cc2)O1)N[C@@H]1CCN(Cc2ccccc2)C1	-2
CO[C@H]1CN(C)C(=O)c2ccc(NC(=O)c3ccc(F)cc3)cc2OC[C@@H](C)N(C(C)=O)C[C@@H]1C	-10
Cc1noc(C)c1NC(=O)Nc1ccc2c(c1)C(=O)N([C@@H](C)CO)C[C@@H](C)[C@H](CN(C)C)O2	13
O=C(C[C@H]1CC[C@H]2[C@@H](COC[C@H](O)CN2C(=O)c2ccncc2)O1)NC1Cc2ccccc2C1	-4
C[C@H]1CN([C@@H](C)CO)C(=O)c2cccc(NC(=O)c3ccc(-c4nccs4)cc3)c2O[C@H]1CN(C)S(=O)(=O)c1ccc(F)cc1	9
CN(C)C(=O)c1ccc(-c2ccc([C@@H]3[C@@H](CO)N4CCCCN(Cc5ccncc5)C[C@H]34)cc2)cc1	9
CO[C@@H]1CN(C)C(=O)c2ccc(NC(=O)c3ccccc3)cc2OC[C@H](C)NC[C@@H]1C	5
CN1c2ccc(Br)cc2[C@@H]2[C@@H](CCN2C(=O)c2ccc(F)cc2)[C@@H]1CO	-5
Cc1cc(C(=O)Nc2cccc3c2O[C@H](CN(C)S(=O)(=O)c2cccs2)[C@@H](C)CN([C@H](C)CO)C3=O)n(C)n1	0
COCC#Cc1ccc([C@H]2[C@H]3CN(Cc4cccnc4)CCCCN3[C@H]2CO)cc1	-2
O=C(C1CCC1)N1CCCCN2[C@H](CO)[C@H](c3ccc(-c4cccc(F)c4)cc3)[C@@H]2C1	-3
C[C@@H]1CN([C@@H](C)CO)C(=O)Cc2cc(NC(=O)CCC(F)(F)F)ccc2O[C@@H]1CN(C)C	-1
CN1C[C@@H]2[C@H](c3ccccc31)[C@@H](CO)N2C(=O)Nc1ccccc1Cl	-7
O=S(=O)(c1ccccc1)N1CCCCN2[C@H](CO)[C@@H](c3ccc(C#CC4CCCC4)cc3)[C@H]2C1	30
Cn1cnc(S(=O)(=O)N2C[C@@H](O)COC[C@@H]3O[C@@H](CC(=O)NCc4cc(F)cc(F)c4)CC[C@H]32)c1	-23
Cc1cccc(S(=O)(=O)N2CCCCN3[C@@H](CO)[C@@H](c4ccc(C#C[C@@H](C)O)cc4)[C@@H]3C2)c1	4
O=C(C[C@@H]1CC[C@@H]2NC[C@H](O)COC[C@H]2O1)Nc1ccccc1	1
Further compounds follow:
SMILES	Yeast UUG start
O=C(C1CC1)N1CCCCN2[C@H](C1)[C@@H](c1ccc(C#CC3CC3)cc1)[C@@H]2CO	10
CO[C@H]1CN(C)C(=O)c2cc(NC(=O)Cc3ccccc3)ccc2OC[C@@H](C)N(C(=O)c2ccccc2F)C[C@@H]1C	8
Cc1noc(C)c1S(=O)(=O)Nc1ccc2c(c1)C(=O)N([C@@H](C)CO)C[C@H](C)[C@H](CN(C)S(=O)(=O)c1ccccc1)O2	1
Cc1cccc(S(=O)(=O)N2CC[C@@H]3[C@H]2c2cc(C#Cc4cccnc4)ccc2N[C@@H]3CO)c1	-3
COc1cccc(CN2[C@@H]3CN(C(=O)C4CC4)c4ccccc4[C@@H]3[C@@H]2CO)c1	10
CC(C)CC#Cc1ccc([C@H]2[C@@H](CO)N3CCCCN(C(=O)Nc4ccccc4)C[C@@H]23)cc1	3
CC(=O)N1[C@H](CNC(=O)C2CC2)[C@@H](c2ccc(-c3ccc(F)cc3)cc2)[C@@H]1CO	-9
COc1ccc(NC(=O)N(C)C[C@@H]2Oc3ccc(NC(=O)CCCN(C)C)cc3C(=O)N([C@H](C)CO)C[C@H]2C)cc1	6
O=C(Nc1cccc(F)c1)N1CCCCN2[C@H](CO)[C@@H](c3ccc(C#Cc4cccnc4)cc3)[C@H]2C1	13
Cc1ccc(-c2ccc([C@@H]3[C@@H](CO)N4CCCCN(C(=O)c5ccc(F)cc5)C[C@H]34)cc2)cc1	-5
CO[C@@H]1CN(C)C(=O)c2cc(NC(=O)C3CCCCC3)ccc2OC[C@@H](C)N(Cc2cccnc2)C[C@H]1C	-2
CCC(=O)N1[C@H](CO)[C@@H](c2ccc(C3=CCCCC3)cc2)[C@@H]1CN(C)C(C)=O	2
